From PubChem BioAssay
VACV mCherry inh: vaccinia inhibition (mCherry reporter) | Vaccinia virus mCherry reporter infection, fluorescence; about a quarter of the inactives have no number | Potency, µM (highest dose often 36.5 µM), inactives show at the highest dose activity change, negative = inhibition, usual class: inhibitors | actives 0.63% (n = 310,000) | AID 720579; active = well fitted inhibition curve with a large enough effect; inconclusive = small, poorly fitted or top-dose-only effect; inactive = no such curve, though single readings can be large or run the other way; tested in A549 cells; further: nearly all actives have a fitted effect of over 35% in size; inactives centre near -10
Vaccinia Venus: inhibitors of vaccinia virus (Venus reporter); actives 0.46% (n = 330,000); AID 720580; Potency, µM (doses to about 36.5 µM), for the others: top-dose activity change, negative = inhibition, hits mostly inhibitors; Vaccinia virus Venus reporter expression, fluorescence; active means well fitted inhibition curve with a large enough effect; inconclusive means small, poorly fitted or top-dose-only effect; inactive means no such curve, though single readings can be large or run the other way; tested in A549 cells; further: nearly all actives have a fitted effect of over 30% in size; inactives centre near -10
* = called active by the depositor; i = inactive; ? = inconclusive; . = no result given; & = joins results of further samples; [ ] = another dose, or the depositor's remark. On the % scale 0 is the no-effect control and ±100 the full control effect; potency means the concentration at half of the fitted maximal effect. The order is random. Share with any hit: about 0.86%.

SMILES	VACV mCherry inh	Vaccinia Venus
Cc1cnc(NC(=O)CSc2nc3ccccc3c(=O)[nH]2)s1	-23%	-14%
Cc1ccc(S(=O)(=O)N(C)CC(=O)NCC(=O)Nc2ccc(F)c(F)c2F)cc1	-29%	-12%
N#CC1=C(N)Oc2cc(O)ccc2C1c1ccc(Br)s1 (stereo not drawn)	i	-3%
COc1ccc(CNC(=O)CSc2ncc3c(n2)-c2ccc(Cl)cc2N(Cc2ccccc2)S3(=O)=O)cc1	-20%	-22%
CC1CN(C(=O)COC(=O)c2ccc(Cl)c(S(=O)(=O)N3CCCCC3)c2)CC(C)O1 (stereo not drawn)	i	-7%
CC(C)CCN1C(=O)c2ccc(-c3nc4ccccc4c(=O)o3)cc2C1=O	-17%	-7%
Cc1ccnc(NC(=O)c2sc3cc(Cl)ccc3c2Cl)c1	-14%	-3%
COc1cc(OC)nc(NC(=O)NS(=O)(=O)c2ccc(OC(F)(F)F)cc2)n1	-12%	0%
CC(C)c1ccc(N2C(=NC(=O)C3CC3)SC3CS(=O)(=O)CC32)cc1 (stereo not drawn)	-17%	-7%
O=C(CN(c1ccccc1)S(=O)(=O)c1ccccc1[N+](=O)[O-])Nc1ccccc1C(=O)N1CCOCC1	-17%	-16%
COCc1c(Br)c(C)nc2sc3c(=O)[nH]nnc3c12	i	-20%
CCOc1ccc2nc(N3CCOCC3)nc(C)c2c1	.	-2%
O=S(=O)(c1ccc(Cl)c2ccccc12)N1CCCC1	-14%	-14%
COc1cccc(CN(C)C(=O)Cc2c[nH]c3ccccc23)c1	-14%	-11%
CN(C)CCCNC(=O)N1c2ccccc2C=Cc2ccccc21	i	6%
COC(=O)C1=C(N)Oc2cc(C)n(C)c(=O)c2C1c1ccc(Cl)c(Cl)c1 (stereo not drawn)	.	-5%
COc1ccc(NC(=O)NCC2CCN(Cc3ccccc3F)CC2)c(OC)c1	-13%	-15%
Cc1cc(C)nc(Nc2nc(=O)c3ccccc3s2)n1	.	-17%
COc1ccccc1OCC(=O)N1CCC(c2nc3ccccc3o2)CC1	-3%	-4%
CCOC(=O)C(C(=O)OCC)C(=O)c1cc(OC)c(OC)c(OC)c1	-22%	-24%
COc1cccc(C(=O)NCCS(=O)(=O)N2CCN(c3ccccc3)CC2)c1OC	i	-19%
CCOC(=O)C1=C(C)Nc2nnnn2C1c1cccnc1 (stereo not drawn)	-3%	-23%
CC(=O)c1cccc(NC(=O)c2nc3ccccc3n(C)c2=O)c1	14%	19%
Cc1cc(N2CCN(c3ccccc3F)CC2)n2cnnc2n1	-19%	-26%
OC1(c2cccnc2)CCN(Cc2ccc3c(c2)CN(Cc2cc(F)cc(F)c2)CCO3)CC1	-11%	-8%

Continuation:
SMILES	VACV mCherry inh	Vaccinia Venus
COc1ccc(Cl)cc1S(=O)(=O)n1cnc2ccccc21	-17%	-2%
CC(C)NC[C@H](O)COc1ccc(CC(N)=O)cc1	-4%	-11%&-14%
COCCNC(=S)N(c1ccccc1)C(C)C	-9%	-14%
NC(=O)CC[C@@H]1NC(=O)[C@H](Cc2ccc(O)cc2)NC(=O)c2cc([N+](=O)[O-])cc(F)c2OCC[C@@H](C(N)=O)NC1=O	i	-11%
COc1ccc(C(O)c2nc(-c3cncnc3)cs2)cc1 (stereo not drawn)	37%[activator]	-2%
COc1ccc(NC(=O)c2ccc(C)cc2)c[n+]1[O-]	-12%	-5%
COC(=O)C1C2CC3c4[nH]c5cc(OC)ccc5c4CCN3CC2CC(OC2CCCCO2)C1OC (stereo not drawn)	?	-17%
COc1cc(CNc2ccccc2SC)cc(OC)c1OC	i	-14%
Cc1ccc(C)c(OCc2nc3ccccc3n2C)c1	-6%	-11%
O/N=C/c1ccccc1OCc1ccccc1F	-4%	0%
COc1ccccc1[C@@H]1C(c2cccc(C)c2)=NN(c2ccccc2)[C@H]1C(=O)N1CCOC1=O	-1%	-22%
CCSc1nc2c(c(=O)[nH]c(=O)n2C)n1C/C=C(/C)Cl	.	-11%
O=C(NNC(=O)c1ccc(O)cc1O)c1ccc(Cl)cc1	.	-20%
CCOc1ccc(C(=O)COC(=O)CNC(=O)C2CCCCC2)cc1	34%[activator]	-3%
COc1ccc(C2CC(C)(c3ccc(OC)cc3OC)Nc3ccccc3N2)c(OC)c1 (stereo not drawn)	-27%	-16%
O=C1NC[C@H](CCCCN2C[C@H](Cc3ccccc3)N(CCc3ccccc3)C(=O)C2=O)N(CC2CCCCC2)C1=O	?	-16%
O=C(O)CSc1nc2ccccc2n1-c1ccccc1	i	-14%
CCn1cc(C(=O)N[C@H](C)c2ccccc2)c(=O)c2cc(F)c(N3CCN(C)CC3)cc21	-19%	-26%
CSc1nncc(/C(C)=N\Nc2ccccc2C)n1	.	-6%
COc1cc(CNc2ncnc3c2ncn3[C@H]2CN(CCc3ccccc3)C[C@@H](CO)O2)cc(OC)c1OC	-11%	-6%
COc1ccc(Oc2c(-c3ccc(O)cc3O)n[nH]c2C)cc1	-26%	-18%
Cc1cccc(OC(=O)c2cccnc2)c1	i	-16%
CCN(C1CCCCC1)S(=O)(=O)c1ccc(-n2cnnn2)c(C)c1	-8%	3%
CN[C@H](CC(=O)O)C(=O)O	-1%	-11%&-8%
Cn1cnnc1SCC(=O)N1CCc2ccccc2C1	-2%	-8%

Arranged by length of the SMILES (descending): part of the list above.
SMILES	VACV mCherry inh	Vaccinia Venus
NC(=O)CC[C@@H]1NC(=O)[C@H](Cc2ccc(O)cc2)NC(=O)c2cc([N+](=O)[O-])cc(F)c2OCC[C@@H](C(N)=O)NC1=O	i	-11%
O=C1NC[C@H](CCCCN2C[C@H](Cc3ccccc3)N(CCc3ccccc3)C(=O)C2=O)N(CC2CCCCC2)C1=O	?	-16%
COc1cc(CNc2ncnc3c2ncn3[C@H]2CN(CCc3ccccc3)C[C@@H](CO)O2)cc(OC)c1OC	-11%	-6%
COc1ccccc1[C@@H]1C(c2cccc(C)c2)=NN(c2ccccc2)[C@H]1C(=O)N1CCOC1=O	-1%	-22%
COC(=O)C1C2CC3c4[nH]c5cc(OC)ccc5c4CCN3CC2CC(OC2CCCCO2)C1OC (stereo not drawn)	?	-17%
CCN(C1CCCCC1)S(=O)(=O)c1ccc(-n2cnnn2)c(C)c1	-8%	3%
CCSc1nc2c(c(=O)[nH]c(=O)n2C)n1C/C=C(/C)Cl	.	-11%
CCOc1ccc(C(=O)COC(=O)CNC(=O)C2CCCCC2)cc1	34%[activator]	-3%
COc1ccc(Oc2c(-c3ccc(O)cc3O)n[nH]c2C)cc1	-26%	-18%
COc1ccc(NC(=O)c2ccc(C)cc2)c[n+]1[O-]	-12%	-5%
CC(C)NC[C@H](O)COc1ccc(CC(N)=O)cc1	-4%	-11%&-14%
Cc1ccc(C)c(OCc2nc3ccccc3n2C)c1	-6%	-11%
Cn1cnnc1SCC(=O)N1CCc2ccccc2C1	-2%	-8%
O/N=C/c1ccccc1OCc1ccccc1F	-4%	0%
CN[C@H](CC(=O)O)C(=O)O	-1%	-11%&-8%

Next compounds:
SMILES	VACV mCherry inh	Vaccinia Venus
CCOC(=O)[C@]12Cc3c(cc(OC)c(OC)c3OC)[C@H]1N(CCC(=O)OC)C(=O)c1ccccc12	?	?
Cc1cc(=O)oc2cc(NC(=O)CCOc3ccccc3)ccc12	23%	-10%
CCOCCCNC(=O)Cn1ncc2c([nH]c3ccccc32)c1=O	-1%	3%
C/C(=N/NC(=O)CNC(=O)COc1cccc(C)c1)c1ccc(Cl)cc1	i	-7%
Cc1ccc(C(=O)N2CCN(S(=O)(=O)N3CCCCC3)CC2)cc1	-10%	-10%
COc1ccc(NC(=O)/C(C#N)=C/c2cc(C)n(-c3ccc(N4CCOCC4)c([N+](=O)[O-])c3)c2C)cc1	i	-14%
Cc1cc(C)cc(NC(=O)COC(=O)c2n[nH]c3ccccc23)c1	-9%	-22%
COc1ccc(OC)c(C2Nc3c(Cl)ccc(C(=O)O)c3C3C=CCC32)c1 (stereo not drawn)	-10%	0%
O=C(NCc1cccnc1)C1CCCN(S(=O)(=O)c2ccccc2)C1 (stereo not drawn)	-4%	-9%
O=C1S/C(=C\c2ccc(N3CCOCC3)o2)C(=O)N1c1ccccc1	10%	46%[activator]
O=[N+]([O-])c1ccc(NCc2ccncc2)cc1	i	-16%
CCCc1nc2ccccc2c(C(=O)OC(C)C(=O)NCc2ccc3c(c2)OCO3)c1CC (stereo not drawn)	?	10µM*
COc1ccc(CC(N)c2csc(NC(=O)NCCc3ccccc3)n2)cc1 (stereo not drawn)	-19%	-21%
COCCN(C(=O)C1CCCC1)c1c(N)n(Cc2ccccc2)c(=O)[nH]c1=O	i	-12%
COc1ccc(C(=O)N2CCc3cc(OC)c(OC)cc3C2c2ccc(OC)c(OC)c2)cc1 (stereo not drawn)	-18%	-25%
CCOC(=O)c1cc(-c2cccs2)nc2onc(C)c12	-10%	-8%
CN1CCN(c2ccc(-c3cccc(NC(=O)COc4ccc(Cl)cc4)c3)nn2)CC1	-3%	-23%
Cc1cc(C(=O)N2CCOCC2)c(C)o1	i	7%
Cc1nn(CCC(=O)N2CCN(c3ccccc3F)CC2)c(C)c1S(=O)(=O)N1CCCC1	i	-15%
O=C(O)CCCC(=O)Nc1ccc(Cl)c(Cl)c1	.	-6%
O=C(c1ccc(S(=O)(=O)Cc2cc(F)ccc2F)c([N+](=O)[O-])c1)N1CCOCC1	?	?
CCOC(=O)c1c(NC(=O)CCC(=O)N(CC)CC)sc2c1CC(C)(C)OC2	-25%	0%
C/C(CC(=O)NC(C)C)=N\NC(=O)C(c1ccccc1)c1ccccc1	-10%	-10%
CCCCC[C@@H](C)N1C[C@@H](COCc2ccccc2)Oc2cc(N3CCC[C@H]3COC)ccc2S1(=O)=O	3%	-1%
O=C(N[C@@H]1C[C@H]2CC[C@@H]1C2)c1ccco1	i	-13%

Additional compounds follow.
SMILES	VACV mCherry inh	Vaccinia Venus
CCS(=O)(=O)N1CCC(C(=O)Oc2ccc(Br)cc2)CC1	i	-16%
O=C(c1ccco1)N1CC2(CC(c3ccc(Cl)cc3)=NO2)CN1Cc1ccc(Br)cc1 (stereo not drawn)	-11%	-19%
COc1ccc(C)cc1NC(=O)CC1NCCNC1=O (stereo not drawn)	-4%	2%
O=C1C2C(c3ccccc3)CC=CC2[C@H](c2ccc(C(F)(F)F)cc2)N1Cc1ccccc1 (stereo partly drawn)	-20%	?
COc1cc(-c2noc(C)c2/C=C/c2ccc(C(=O)O)cc2)cc(OC)c1OC	i	-12%
COc1ccc(C(CNC(=O)CNC(=O)c2cccc(C)c2)N2CCOCC2)cc1 (stereo not drawn)	i	-7%
COC(=O)CCN(Cc1cc(OC)ccc1OC)S(=O)(=O)c1ccccc1Br	-23%	-1%
COc1ccc(NC(=O)c2ccccc2C(=O)N2CCCCC2)cc1	-7%	-2%
COc1ccc(-c2coc3c(C(=O)NCc4ccc(OC)c(OC)c4)cccc23)c(C)c1	-2%	-24%
O=C(c1ccco1)N1CCN(C(=O)c2cnn(-c3ccc(F)cc3)c2-n2cccc2)CC1	6%	-16%
O=C(O)C(Cc1ccccc1)NC(=O)C(c1ccccc1)c1ccccc1 (stereo not drawn)	-13%	6%
Cc1ccc(NC(=O)c2ccc(-n3cncn3)c([N+](=O)[O-])c2)cc1F	-34%	-19%
CCOC(=O)c1cnc(-c2ccccc2)[nH]c1=O	-22%	-11%
CCOc1ccccc1NC(=O)Nc1ccccc1OCc1cc(=O)n2ccccc2n1	-9%	-17%
C/C(=N\NC(=O)CCCNc1ccccc1)c1ccncc1	-2%	-7%
c1ccc2c(c1)ccc1nnc(-c3ccc4c(c3)OCO4)n12	.	-18%
O=C(COC(=O)c1cc(S(=O)(=O)N2CCc3ccccc3C2)ccc1Cl)NCc1ccco1	-13%	-11%
O=C(Nc1ccc(N=Nc2ccccc2)cc1)c1ccccc1Cl	-13%	?
O=C(CN(C(=O)c1csnn1)c1ccc(Br)cc1)NC1CCCCC1	-1%	-18%
Cc1ccc(C(=O)c2sc(Nc3ccc(F)cc3)c(C#N)c2N)cc1	-28%	-19%
O=C(c1ccc(F)cc1)c1cn(Cc2ccc(F)cc2)c2cc3c(cc2c1=O)OCCO3	4%	-4%
COc1ccc(CNC(=O)N2CCN(c3ccccc3)CC2)cc1	-6%	-13%
CC1CCCC(C)N1C(=O)COc1ccc(C(=O)Nc2ccccc2N2CCOCC2)cc1 (stereo not drawn)	-2%	-12%
O=C(COC(=O)c1ccc(NS(=O)(=O)c2ccc(F)c(F)c2)cc1)NCC1CCCO1 (stereo not drawn)	-1%	-18%
CCCCn1nnnc1C(CCc1ccccc1)N1CCC(n2c(=O)[nH]c3ccccc32)CC1 (stereo not drawn)	?	?

Later entries.
SMILES	VACV mCherry inh	Vaccinia Venus
Cc1c(/C=N/NC(=O)c2cccnc2)cc(C#N)n1C	i	-6%
CCOc1ccc(S(=O)(=O)Nc2cccc(C(=O)NCC(c3ccc(OC)cc3)N3CCOCC3)c2)cc1 (stereo not drawn)	-18%	-11%
Cc1ccc(NNC(=O)c2ccno2)c(C)c1	-14%	-11%
Cc1nc(NC(C)(C)CO)c([N+](=O)[O-])cc1[N+](=O)[O-]	i	-10%
COc1cc(OC)cc(C(=O)NC(=S)Nc2nc(-c3cc4ccccc4o3)cs2)c1	0%[7.34 µM]	15%[7.34 µM]
COc1ccc(CCNC(=O)CSc2nc(=O)n3cccc(C)c3n2)cc1OC	-17%	-15%
